# Compound activity (PubChem BioAssay)
# Calb FLC: C. albicans growth modulation with fluconazole. growth inhibition, % (concentration not given with the values). C. albicans CaCi-2 (fluconazole-resistant clinical isolate) + fluconazole, Alamar Blue growth, 48 h. 300,000 compounds, 0.57% hits;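 active = most replicates above 75%; inconclusive = exactly half above 75%; inactive = most below 75%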;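 note: all wells also contain fluconazole at 8 µg/ml as a sub-toxic cotreatment; 0% = median of DMSO wells and 100% = median of geldanamycin control wells; wells of about 8 µL received 7.5 nL stock; the first replicate is given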
# LANA-H2A inh: blocks KSHV LANA binding to histone H2A/H2B; Q9QR71; cell-free LANA-H2A/H2B peptide, fluorescence polarization; inhibition, % (concentration not given with the values); 320,000 compounds, 0.6% hits; AID 2629; in the data active = inhibition mostly above about 10%, no sharp cut-off; inactive = mostly below about 6.7%;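 note: stock transfer was 7.5 nL into about 10 µL; 0% = median of vehicle wells and 100% = median of positive control wells; one replicate is shown; the record names a cut of 25% in any replicate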
# Vif A3G: inhibitors of Vif binding to APOBEC3G peptide, primary screen, biochemical, TR-FRET, GST-Vif 1-94, biotin-A3G peptide, dose response retest (AID 1117319). TR-FRET GST-Vif / biotin-A3G peptide binding; higher % means a stronger effect; test concentration not given here; strong numbers were not always called active. inhibition, %; hits with a dose series show IC50 in µM. 260,000 compounds, 0.57% hits;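 active = above the screen mean plus three standard deviations and confirmed in dose response; inconclusive = results disagree or hit not tested in dose response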;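 note: Vif residues 1-94 fused to GST binding biotinylated APOBEC3G peptide 110-148; 0% = full assay without inhibitor and 100% = GST in place of GST-Vif; retest series ran down from 100 µM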
# AF4-AF9 inh: MLL-AF4/AF9 protein interaction inhibition; P42568; AlphaScreen, biotin-AF4 peptide binding to FLAG-AF9; inhibition, % at 10 µM; 350,000 compounds, 0.47% hits;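 active = every replicate reaching a set inhibition limit, whatever the replicate mean, cut at about 25% in these data; inconclusive = mean inhibition reaches that limit but some replicates miss it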;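 note: 0% = plate neutral control median and 100% = total signal loss; the record names both 10 and 1 µM as test concentration; the first replicate is given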
# Target sequence (P42568 whole entry, looked up): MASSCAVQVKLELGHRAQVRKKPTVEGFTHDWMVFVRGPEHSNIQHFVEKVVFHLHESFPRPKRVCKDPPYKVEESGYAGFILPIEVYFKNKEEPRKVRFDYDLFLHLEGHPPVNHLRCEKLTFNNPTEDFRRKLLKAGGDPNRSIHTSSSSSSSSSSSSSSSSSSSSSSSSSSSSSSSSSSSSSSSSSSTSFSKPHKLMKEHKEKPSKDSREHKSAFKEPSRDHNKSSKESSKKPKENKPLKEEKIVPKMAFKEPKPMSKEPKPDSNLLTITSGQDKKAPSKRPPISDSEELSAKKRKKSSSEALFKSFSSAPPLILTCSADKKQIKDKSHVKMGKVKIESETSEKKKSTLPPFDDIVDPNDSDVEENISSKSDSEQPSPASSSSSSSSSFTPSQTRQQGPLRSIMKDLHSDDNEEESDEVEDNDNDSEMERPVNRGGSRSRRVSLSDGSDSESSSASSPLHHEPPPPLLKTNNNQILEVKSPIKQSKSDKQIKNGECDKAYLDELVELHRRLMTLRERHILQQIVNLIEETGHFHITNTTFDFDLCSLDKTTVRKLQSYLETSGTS
# T cruzi repl: T. cruzi replication inhibition; 300,000 compounds, 1.4% hits; T. cruzi beta-gal in NIH3T3, luminescence, 90 h; inhibition, % (concentration not given with the values); AID 1885;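 active = mean inhibition across valid replicates above about 55%, limit read from the data; inconclusive = mean below that limit but half or more replicates reach it; inactive = mean below it, under half of replicates reach it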;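 note: signal also drops with host cell toxicity which is not excluded here; 0% = plate median of DMSO wells and 100% = zero luminescence signal; higher percent means less beta-gal luminescence so fewer parasites; stock transfer was 50 nL into about 50 µL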
# Beta apoptosis: blocks beta cell apoptosis; INS-1E cytokine-induced death, ATP luminescence, 48 h; percent of positive-control rescue, neutral wells zero; protection from apoptosis, % (test concentration not listed); 300,000 compounds, 0.8% hits;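 active = all replicates at 75% or more, or half of them and the mean; inconclusive = half reach 75% but not the mean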;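 note: 0% = cytokine-treated negative control wells and 100% = positive control rescue; higher means more ATP so stronger rescue from cytokine killing; wells of about 40 µL received 100 nL stock; the first replicate is given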
# RanGTP-Imp inh: disruptors of Ran-importin-beta complex formation – biochemical, FRET, CFP-Ran, YFP-importin-beta, homogeneous, primary screen | cell-free CFP-Ran/YFP-importin-beta FRET ratio | inhibition, % (concentration not given with the values) | 300,000 compounds, 1.1% hits | AID 2216;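 active = most replicates above 15%; inconclusive = exactly half above 15%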;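 note: 0% = DMSO wells and 100% = Ran loaded with GDP instead of GTP; wells of about 40 µL received 100 nL stock; the first replicate is given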
# A1 inh: inhibitors of the anti-apoptotic protein A1, read as caspase activation | 330,000 compounds, 0.066% hits | caspase activation, % (test concentration not listed) | AID 2462 | MEF A1-2A-BIM cells, Caspase-Glo 3/7 luminescence, 3 h; percent of clofoctol response, vehicle zero;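 active = over half of replicate activation scores above 10%, or exactly half above 10 with the replicate mean above 10; inconclusive = replicate mean below 10 yet half the replicates above 10; inactive = over half of replicates below 10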;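 note: wells of about 30 µL received 50 nL stock; many hits fall short of the cut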
# * marks the source's active call; other numbers are inactive results; ? = inconclusive; . = no result given. Rows are unselected. Share with any hit: about 4.3%.
mol,Calb FLC,LANA-H2A inh,Vif A3G,AF4-AF9 inh,T cruzi repl,Beta apoptosis,RanGTP-Imp inh,A1 inh
Cc1nn(C)c(C(=O)Nc2cccc(CN3CCOCC3)c2)c1Br,8,6.0,0%,2.0,-13,-2,3.8,-0.2
O=C(Cc1ccc(Cl)cc1)Nc1cccnc1,-2,12,.,-0.5,-9,12,-4.0,-0.1
Clc1cc2nc[nH]c2cc1Cl,7,-1.2,-2%,2.1,-2,-5,1.1,-0.3
COc1ccc(/C=C/c2nc(C)c(-c3ccccc3)c(=O)[nH]2)cc1OC,-11,0.9,.,-0.4,3,-1,-1.1,-2.7
CN1CCN(c2ccc(NC(=O)c3ccc4c(c3)[nH]c(=O)n4Cc3ccc(F)cc3)cc2)CC1,11,0.3,-2%,.,66*,-6,0.8,0.3
COc1ccc(NC(=O)c2sc3nc(N4CCOCC4)c4c(c3c2N)CC(C)(C)OC4)cc1,-1,-1.3,1%,-1.4,-1,11,2.2,-0.8
CC(=O)OC[C@H]1O[C@H](C/C=N/O[C@@H](C)c2cn([C@H](CO)Cc3ccccc3)nn2)C=C[C@@H]1OC(C)=O,-4,-1.0,-5%,.,-24,0,-4.5,-0.2
CN(C)CCCNC(=S)Nc1ccc(Oc2ccccc2)cc1,-3,-3.4,.,7.6,7,-2,-0.3,-0.2
N#Cc1ncc(C(F)(F)F)cc1Oc1cccnc1,34,3.4,-10%,-3.1,-3,-2,-3.3,0.9
Cc1ccc(-n2c(-c3ccc(Cl)cc3)n[nH]c2=S)c(C)c1,41,2.2,.,-9.9,-4,1,-0.3,-0.4
Cc1nc(N2CCN(C(=O)c3ccco3)CC2)[nH]c(=O)c1C,1,-0.5,2%,-1.1,-6,-3,-3.3,0.4
O=C(CN1c2cccc3cccc(c23)S1(=O)=O)Nc1ccccc1,15,-6.9,-9%,-0.3,1,3,-1.6,0.1
CC(C)OP(=O)(OC(C)C)C1(O)C(=O)Nc2ccccc21 (stereo not drawn),3,-1.4,5%,.,-4,1,-4.0,1.0
CCCn1c(SC2C(=O)CC(C)(C)CC2=O)nc2c1c(=O)n(C)c(=O)n2C,-9,-2.3,11%,.,-12,-7,4.0,0.5
Cc1c(N/C=C/C(=O)c2ccc(Cl)cc2)c(=O)n(-c2ccccc2)n1C,-7,6.1,3%,5.5,-5,-6,7.1,-1.3
NC(=O)CC(NC(=O)Cc1ccc(Cl)cc1)c1ccc(N2CCN(c3ccccn3)CC2)c([N+](=O)[O-])c1 (stereo not drawn),-3,-0.9,.,1.0,-15,-7,-2.7,1.1
Cc1cc(C)n(-c2ccc3nnc(C)n3n2)n1,18,1.4,?,-3.8,-4,2,4.4,-1.4
CS(=O)(=O)N(Cc1ccccc1)c1ccc(C(=O)NCCSCc2ccco2)cc1,-22,1.9,11%,.,-2,-1,-1.7,0.2
Cc1ccccc1NC(=O)Cn1c(CCC(=O)O)ccc1-c1cccs1,-14,-3.6,4%,0.6,-19,0,6.7,-0.3
CCOc1ccc(OCC)c(NC(=O)CCCN2C(=O)c3cccnc3C2=O)c1,2,0.9,-1%,.,-11,-4,4.9,0.7
Cc1ccc(C)c(/C=C(\C(=O)O)c2ccc(S(=O)(=O)N3CCCCC3)s2)c1,9,2.2,20%,-0.8,-6,-3,1.6,-0.3
CCN(CC)S(=O)(=O)c1ccc(C)c(NC(=S)Nc2cccc(S(=O)(=O)N3CCCCCC3)c2)c1,6,-3.6,.,3.1,20,6,1.1,0.0
C/C=C/c1ccc(OC(C)=O)c(OC)c1,6,0.4,6%,0.6,-13,-1,-0.3,0.5
Cc1ccc2c(c1)-c1c(cnn1CC(=O)Nc1ccccc1N1CCN(C)CC1)CO2,23,-2.0,?,-0.3,15,-7,9.0,0.2
CCOc1cc(N2CCOCC2)c(OCC)cc1NC(=O)COC(=O)CCOc1cc(C)ccc1C,6,0.9,3%,-0.1,-7,-32,-0.7,0.4
COc1ccc(O)c(/C=N/NC(=O)c2ccc(OCc3cccc(Br)c3)cc2)c1,63*,2.4,-1%,.,73*,93*,2.2,0.7
COc1ccc(F)cc1CN1CCN(C(=O)CCC(=O)Nc2nnc(C3CCCCC3)s2)CC1,-2,-4.6,.,0.6,40,3,-0.1,0.3
COc1ccc2[nH]c(C)c(CCN3C(=O)C4C5C=CC(C5)C4C3=O)c2c1 (stereo not drawn),6,1.2,16%,3.3,6,-6,-1.6,-0.1
C/C(=N\NC(=O)c1nc2ccccn2c1C)c1ccc2c(c1)OCO2,-2,5.6,.,.,1,-10,1.6,-0.6
O=C(CN1CCCCCC1)Nc1ccc([N+](=O)[O-])cc1Cl,3,-1.7,-5%,5.3,7,6,3.0,1.0
O=C(CCCn1c(SCC(=O)c2ccc(F)cc2)nc2ccccc2c1=O)NCc1ccccc1,5,-0.5,?,.,-6,3,0.7,-0.1
CN(C1CCCCC1)S(=O)(=O)c1ccc2[nH]c(=O)oc2c1,14,3.0,-5%,-3.1,-8,-2,?,0.5
C=CCN(CC=C)S(=O)(=O)c1ccc(C(=O)Nc2nnc(CSC)o2)cc1,4,0.1,2%,0.9,-49,1,-5.0,0.4
COc1cccc(C(=O)CSc2nnnn2C)c1,.,-0.9,8%,.,9,-2,2.3,-1.3
CCCc1cc(-c2n[nH]c(=S)n2-c2cccc(C)c2)cs1,-22,-3.3,4%,-2.6,15,3,-2.5,0.4
CCOc1ccc(CN(Cc2ccco2)S(=O)(=O)c2ccc(-n3cnnn3)c(OC)c2)cc1,-19,2.2,1%,.,.,7,3.4,0.9
Cc1ccc(-c2nc3[nH]c(=O)cc(NC(=O)c4cccs4)n3n2)cc1,24,-0.5,-2%,-6.8,-7,5,4.5,-0.5
Cc1noc(C)c1CN1C(=O)NC(Cc2ccccc2)(Cc2ccccc2)C1=O,-11,-2.4,-3%,.,-2,5,2.5,-0.2
COc1cc2c(cc1NC(=O)CSc1nnc(Cc3cccs3)n1C)oc1ccccc12,-11,0.1,-1%,.,21,-13,0.1,-0.2
COC(=O)C(OC(=O)c1ccc(OC)cc1)C(=O)OC,-18,11,?,.,-1,0,-0.6,0.7
COc1cccc(-c2nn(C)c3sc(C(=O)Nc4ccc5c(c4)OCCO5)cc23)c1,5,2.0,52µM*,.,36,25,-2.0,0.3
Nc1cccc(NC(=O)c2ccco2)c1,14,-7.1,15%,-14,-2,.,-3.0,-2.9
COc1ccc(NS(=O)(=O)c2cc(NC(=O)CCSc3ccccc3)ccc2OC)cc1,13,1.2,-7%,.,9,-16,2.4,0.8
CCC(Oc1ccc(Br)cc1)C(=O)N1CCN(c2ncccn2)CC1 (stereo not drawn),1,-0.9,7%,-14,11,-1,2.9,-0.4
Cc1cccnc1NC(=O)CN1C(=O)NC(C)(c2ccc3ccccc3c2)C1=O (stereo not drawn),8,0.3,-1%,1.0,-2,-8,-3.7,0.8
CCOc1ccc(C(=O)NC(=S)Nc2cc(C)ccn2)cc1[N+](=O)[O-],-3,98*,.,2.7,-10,-13,?,-0.4
O=C(/C=C/c1ccco1)NC(=S)Nc1ccccc1N1CCOCC1,34,2.6,11µM*,.,-2,18,5.1,-1.0
CC(C)(C)OC(=O)NCCNC(=O)c1cccs1,-16,-1.3,0%,-1.1,-7,-3,-2.2,0.1
O=C(CN(CC1CCCO1)C(=O)CNS(=O)(=O)c1ccc(F)cc1)NC1CCCC1 (stereo not drawn),-2,-0.8,-1%,-2.8,4,2,-3.5,-0.4
CCC(C)NC(=O)C1(C)CCC(=O)N1Cc1ccccc1OC (stereo not drawn),-19,2.2,1%,.,-18,0,2.4,-0.3
O=C1Nc2ccc(Cl)cc2C12Nc1ccccc1-c1nnc(SCc3ccccc3F)nc1O2 (stereo not drawn),3,-0.8,.,.,-10,-2,0.9,0.9
COc1ccc(OC)c(NC(=O)CSc2nncc(=O)n2N)c1,-10,8.8,-2%,-1.9,-19,-4,4.7,-0.1
Cc1ccccc1-n1ncc2c1CC(C)(C)CC2NC(=O)CCC(F)(F)F (stereo not drawn),5,-2.7,.,-0.1,-5,-6,-0.4,-0.5
COc1cccc(N2CCN(C(=S)Nc3ccc(F)cc3)CC2)c1,8,-4.9,0%,3.3,-2,-8,0.2,0.3
O=C(N/N=C/c1ccco1)c1ccn[nH]1,-1,5.6,-6%,-1.6,-1,-1,-4.2,-1.1
COc1cc(/C=N/NC(N)=O)c(Br)cc1OCC(=O)Nc1ccccc1C,-3,6.4,-3%,.,3,21,-0.7,0.1
CC(=O)N(CCC(c1ccccc1)c1ccco1)Cc1cccs1 (stereo not drawn),5,1.3,-2%,.,-18,-6,-1.8,1.0
CCCn1c(=O)c2[nH]c(-c3ccc(S(=O)(=O)O)cc3)nc2n(CCC)c1=O,.,-1.2,.,-0.5,.,-2,.,0.2
CC(C)(C)OC(=O)N[C@@H](CC(=O)OCc1ccccc1)C(=O)O,1,10,9%,-0.5,-14,-7,1.6,0.5
O=C(Nc1ccc(Oc2cccnc2)nc1)c1ccc(C(F)(F)F)cc1,7,-16,.,-2.8,4,10,0.1,-0.5

# Continued:
mol,Calb FLC,LANA-H2A inh,Vif A3G,AF4-AF9 inh,T cruzi repl,Beta apoptosis,RanGTP-Imp inh,A1 inh
CCOC(=O)Cn1c(=NC(=O)c2sc3ccccc3c2Cl)sc2cc(S(N)(=O)=O)ccc21,1,-487,-7%,.,-6,3,-3.8,-0.1
COc1ccc(CNc2cc(C)ccc2C)c(OC)c1OC,14,1.6,?,.,-6,2,?,0.0
CCNc1nc(SCCOc2ccccc2)nc(N(C)C)n1,-12,4.6,1%,2.4,12,1,2.1,0.0
CNc1snc(C)c1C(=O)OC(C)C(=O)c1ccc(F)cc1 (stereo not drawn),.,1.7,.,-2.6,.,5,.,-1.2
COc1ccc(CCN=C(N)NS(=O)(=O)c2ccc(C)c(C)c2)cc1OC,-4,-1.4,.,-1.2,-9,-1,10,-1.1
COc1ccc(S(=O)(=O)NCc2ccc3c(c2)cc(C)n3C)cc1,-5,-1.7,-5%,-3.4,36,-9,-3.1,1.0
COCCNCc1ccccc1,12,-3.3,9%,-1.2,-20,1,-5.5,-0.2
CC1CCCN(CCC(=O)Nc2ccc(F)c(F)c2)C1 (stereo not drawn),-5,-5.7,13%,1.2,9,1,-2.1,2.2
CCCNC(=O)NC(=O)COC(=O)/C=C/c1cc(Br)ccc1F,20,-5.0,2%,-5.2,-7,-3,2.6,-0.4
O=S(=O)(NCc1cccs1)c1ccccc1Cl,-5,2.6,.,-6.4,-7,-4,0.4,0.3
O=C(Nc1ccc2c(c1)OCO2)c1noc2c1CCCCC2,-40,-0.7,10%,.,12,-4,?,-6.6
O=C(Nc1ccccc1)N1CCCC(c2nc(-c3cccs3)no2)C1 (stereo not drawn),19,-2.7,0%,-10,-12,3,3.9,-1.4
Cc1cccc(N(CC(=O)NC(C)C)C(=O)CCC(=O)Nc2nccs2)c1,-14,2.8,.,-2.1,-7,-6,-2.2,1.7
